Vaccinia mCherry = vaccinia inhibition (mCherry reporter) | 310,000 compounds, 0.63% hits | Vaccinia virus mCherry reporter infection, fluorescence; about a quarter of the inactives have no number | AID 720579 | Potency, µM (series often up to 36.5 µM), without a hit: top-dose activity change, negative = inhibition, actives largely listed as inhibitors; active = well fitted inhibition curve with a large enough effect; inconclusive = small, poorly fitted or top-dose-only effect; inactive = no such curve, though single readings can be large or run the other way; tested in A549 cells; note: nearly all actives have a fitted effect of over 35% in size; inactives centre near -10
Vaccinia Venus = vaccinia inhibition (Venus reporter). Vaccinia virus Venus reporter expression, fluorescence. Potency, µM (series often up to 36.5 µM), for the others: at the top dose activity change, negative = inhibition, hits mostly inhibitors. 330,000 compounds, 0.46% hits. AID 720580; active means well fitted inhibition curve with a large enough effect; inconclusive means small, poorly fitted or top-dose-only effect; inactive means no such curve, though single readings can be large or run the other way; tested in A549 cells; note: nearly all actives have a fitted effect of over 30% in size; inactives centre near -10
The depositor's hits bear a star; i = inactive; ? = inconclusive; nt = not tested or not shown; [ ] = remark or other dose. % is set by controls: 0 for no effect and ±100 for the full control effect; potency is the fitted concentration of half-maximal effect.

Start of the data: the first four records as a preview:
Every second line gives: Vaccinia mCherry, Vaccinia Venus
> CC1=CC2=NC(=O)CC(C)(C(=O)N(CC(=O)NC3CCCC3)Cc3ccccc3)N2C=C1 (stereo not drawn)
→ 1.9%, -4.0%
> CC(C)N(C(=O)[C@H]1C[C@H](CC(=O)NCCCN(C)C)C(=O)N2CCc3c([nH]c4ccc(Cl)cc34)[C@]12C)C(C)C
→ i, -4.8%
> COc1ccc(NC(=O)Cn2c(=O)oc3cc(S(=O)(=O)N4CCCCCC4)ccc32)cc1OC
→ -19.4%, -20.0%
> CN(C(=O)CN(C)S(=O)(=O)c1ccc(F)cc1)c1c(N)n(Cc2ccccc2)c(=O)[nH]c1=O
→ i, -16.8%

All compounds of this part, previewed entries included:
Every second line gives: Vaccinia mCherry, Vaccinia Venus
> CC1=CC2=NC(=O)CC(C)(C(=O)N(CC(=O)NC3CCCC3)Cc3ccccc3)N2C=C1 (stereo not drawn)
→ 1.9%, -4.0%
> CC(C)N(C(=O)[C@H]1C[C@H](CC(=O)NCCCN(C)C)C(=O)N2CCc3c([nH]c4ccc(Cl)cc34)[C@]12C)C(C)C
→ i, -4.8%
> COc1ccc(NC(=O)Cn2c(=O)oc3cc(S(=O)(=O)N4CCCCCC4)ccc32)cc1OC
→ -19.4%, -20.0%
> CN(C(=O)CN(C)S(=O)(=O)c1ccc(F)cc1)c1c(N)n(Cc2ccccc2)c(=O)[nH]c1=O
→ i, -16.8%
> Cc1cc2cc(CNC(=O)c3ccc(Br)o3)ccc2n1C
→ 51.7%[activator], 161.2%[activator]
> Fc1cccc(-c2ccc3c(c2)CN(c2cccc(Cl)c2)Cc2cnnn2-3)c1
→ 17.7%, -9.6%
> O=C(c1cc(N2CCCCC2)nc2ccccc12)N1CCOCC1
→ -12.5%, -2.5%
> CC(=O)N1CCc2cc(S(=O)(=O)CCC(=O)N3CCN(c4ccccc4F)CC3)ccc21
→ -12.5%, -10.6%
> COc1ccc(CN2C(=O)C(CC(=O)NCc3cccc4ccccc34)CC(C(=O)N(C(C)C)C(C)C)=C2C)cc1 (stereo not drawn)
→ -23.6%, -17.4%
> Cc1ccc(NC(=S)N(C)N)cc1Cl
→ ?, -14.2%
> O=C(NCc1nc(-c2ccccc2)no1)c1ccco1
→ -2.5%, -2.3%
> O=c1cc(-c2ccccc2)nc(SCc2nc(-c3ccccc3Cl)no2)[nH]1
→ -5.8%, -0.5%
> COc1ccc([N+](=O)[O-])cc1NC(=O)CCSCCc1ccccn1
→ i, -1.4%
> CC1(C(=O)NS(=O)(=O)c2cccc(C#N)c2)CCN1C(=O)Cc1ccccc1Cl (stereo not drawn)
→ i, -9.7%
> CCOC(=O)CN(c1cc([N+](=O)[O-])ccc1OC)S(C)(=O)=O
→ -1.6%, -2.9%
> CN(Cc1ccc2c(c1)OCCO2)C(=O)CSc1ncnc2sccc12
→ -0.3%, -21.8%
> O=C(c1cccs1)N1CCN=C1SCc1ccccc1F
→ -8.8%, 1.5%
> O=C(Cn1cnc2sc3c(c2c1=O)CCCC3)NCC(=O)Nc1c(F)cccc1F
→ i[7.34 µM], 0.0%[7.34 µM]
> CCCn1c(O)c(N=NC(=O)CNC(=O)Cc2ccc(OC)cc2)c2ccccc21
→ -12.8%, -18.5%
> CC(C)OC(=O)c1cc2c(ccn2C)n1CC(=O)N(Cc1ccccc1)c1ccccc1
→ ?, -18.5%

A different layout for two compounds above.
smiles | Vaccinia mCherry | Vaccinia Venus
COc1ccc(NC(=O)Cn2c(=O)oc3cc(S(=O)(=O)N4CCCCCC4)ccc32)cc1OC | -19.4% | -20.0%
O=C(NCc1nc(-c2ccccc2)no1)c1ccco1 | -2.5% | -2.3%

Continued:
Every second line gives: Vaccinia mCherry, Vaccinia Venus
> COc1ccc(CCNC(=O)C2CCC(=O)N(C3CCCCCC3)C2)cc1 (stereo not drawn)
→ -1.9%, -21.6%
> CC1(C(=O)NS(=O)(=O)c2cccc(F)c2)CCN1C(=O)c1ccco1 (stereo not drawn)
→ -0.8%, 14.1%
> O=C(NNS(=O)(=O)c1ccc([N+](=O)[O-])cc1)c1ccccc1
→ -4.7%, -9.8%
> CCCCNC(=O)[C@@H](c1ccccc1)N1Cc2ccccc2C1=O
→ -12.5%, -12.3%
> COc1ccc(NC(=O)/C(=C/c2ccc(OC(C)=O)c(OC)c2)NC(C)=O)cc1
→ -10.3%, 1.4%
> Cc1ccc(-c2onc(C)c2C)cc1S(=O)(=O)N1CCN(c2ccccc2F)CC1
→ i, -21.2%
> CC(C)CCNC(=O)CN1C(=O)CN=C(c2ccccc2)c2ccccc21
→ -21.9%, -8.7%
> O=C(Nc1cccc2c1C(=O)NC2=O)c1ccccc1[N+](=O)[O-]
→ -6.2%, -1.2%
> CC(=O)OC1=Cc2c(ccc3ccc(=O)oc23)OC1(C)C
→ nt, -9.6%
> COCCNC(=O)c1ccc(-n2c(SCc3ccncc3)nc3ccccc3c2=O)cc1
→ -1.4%, 1.0%
> CN(C(=O)c1cccc(C#N)c1)c1nnc(-c2ccncc2)s1
→ -1.1%, -4.8%
> CCCCCCSc1nnc2c(n1)OC(C)Nc1ccc(Br)cc1-2 (stereo not drawn)
→ 4.5%, 14.7%
> O=C1Nc2ccccc2C1(O)C/C(=N/O)c1ccccc1 (stereo not drawn)
→ -3.7%, 3.0%
> COc1ccc(NC(=O)C(c2ccncc2)n2c(=O)c(-c3ccccc3)nc3ccccc32)cc1 (stereo not drawn)
→ ?, -6.9%
> COC(Cn1c(C)c(C(C)=O)c(C(C)=O)c1C)OC
→ i, 15.1%
> COc1ccc(C(=O)NCCNc2ccc([N+](=O)[O-])cc2)cc1OC
→ -13.7%, -7.7%
> CC1=C(C(=O)Nc2ccccc2)C(c2ccc(C(=O)O)cc2)n2nc(SCC(=O)c3ccc(C)cc3)nc2N1 (stereo not drawn)
→ -13.3%, -0.1%
> CCC(C)NC(=O)COCc1cc(-c2ccc3c(c2)OCO3)on1 (stereo not drawn)
→ i, -0.2%
> COC(=O)c1sc2nc(CN3CCN(c4ccc(OC)cc4)CC3)[nH]c(=O)c2c1C
→ -12.8%, 3.2%
> COc1cc2nc(NC(=O)c3ccco3)sc(=O)c2cc1OC
→ -3.0%, 11.3%

Arranged by molar mass (rising): some entries from above.
Every second line gives: Vaccinia mCherry, Vaccinia Venus
> O=C(NNS(=O)(=O)c1ccc([N+](=O)[O-])cc1)c1ccccc1
→ -4.7%, -9.8%
> COc1cc2nc(NC(=O)c3ccco3)sc(=O)c2cc1OC
→ -3.0%, 11.3%
> COCCNC(=O)c1ccc(-n2c(SCc3ccncc3)nc3ccccc3c2=O)cc1
→ -1.4%, 1.0%
> COc1ccc(NC(=O)C(c2ccncc2)n2c(=O)c(-c3ccccc3)nc3ccccc32)cc1 (stereo not drawn)
→ ?, -6.9%
> CC1=C(C(=O)Nc2ccccc2)C(c2ccc(C(=O)O)cc2)n2nc(SCC(=O)c3ccc(C)cc3)nc2N1 (stereo not drawn)
→ -13.3%, -0.1%

Four of the compounds above, field by field:
Structure: CCCCNC(=O)[C@@H](c1ccccc1)N1Cc2ccccc2C1=O
- Vaccinia mCherry = -12.5%
- Vaccinia Venus = -12.3%

Structure: COc1ccc(NC(=O)/C(=C/c2ccc(OC(C)=O)c(OC)c2)NC(C)=O)cc1
- Vaccinia mCherry = -10.3%
- Vaccinia Venus = 1.4%

Structure: Cc1ccc(-c2onc(C)c2C)cc1S(=O)(=O)N1CCN(c2ccccc2F)CC1
- Vaccinia mCherry = i
- Vaccinia Venus = -21.2%

Structure: CC(C)CCNC(=O)CN1C(=O)CN=C(c2ccccc2)c2ccccc21
- Vaccinia mCherry = -21.9%
- Vaccinia Venus = -8.7%

(further entries)
Every second line gives: Vaccinia mCherry, Vaccinia Venus
> Cc1ccnc(NC(=O)c2ccc([N+](=O)[O-])o2)c1
→ -27.5%, -18.8%
> COc1ccc(CNC(=S)Nc2cc(OC)ccc2OC)cc1
→ -19.4%, -11.0%
> CCC(=O)Nc1c2c(nn1-c1ccc(OC)cc1)CS(=O)C2 (stereo not drawn)
→ -10.8%, -6.3%
> CCC(C)(C)NC(=O)CN(C(=O)C(=O)Nc1ccc2c(c1)OCCO2)C1CC1
→ i, -14.1%
> Cc1ccc(NC(=S)NC(=O)c2ccc(-c3ccccc3)cc2)cc1
→ -8.5%, -10.3%
> COc1ccc(C(=O)CSc2nc3[nH]ncc3c(=O)[nH]2)cc1
→ i, 12.1%
> O=C(Nc1ccc(F)cc1F)N1CCN(C/C=C/c2ccccc2)CC1
→ i, -4.4%
> O=C(CCC(=O)Nc1ccccc1Cl)N/N=C/c1ccccc1
→ i, -12.2%
> CCNC(=O)C1(C)CCCN(C(=O)c2cccnc2Oc2ccccc2)C1 (stereo not drawn)
→ 35.7%[activator], 1.8%
> CC1(C)C2CC=C(/C=N/NC(=O)c3ccc(O)cc3)C1C2 (stereo not drawn)
→ i, -5.9%
> COc1ccc(NC(=O)CN(C)C(=O)CNC(=O)C2CCCCC2)cc1
→ -9.5%, -10.5%
> COc1ccc(-c2cc(C(F)F)n3ncc(C(=O)N4CCN(C)CC4)c3n2)cc1
→ -13.7%, -27.1%
> CCN(CC)CCCNC(=O)c1ccc(S(=O)(=O)Nc2ccc(C)c(C)c2)cc1
→ i, -21.3%
> COC(=O)Cc1c(C)nc2nc(-c3ccco3)[nH]n2c1=O
→ nt, -8.9%
> CC1CCN(CCc2nc3cc(NC(=O)COc4ccc([N+](=O)[O-])cc4)ccc3n2C)CC1
→ ?, ?
> CC1c2c([nH]c3ccccc23)CCC1C(=O)O (stereo not drawn)
→ -16.2%, -10.8%
> COC(C[C@H](O)CC(=O)[C@H](C)OCc1ccccc1)OC
→ i, -2.4%
> CCOC(=O)NC(=O)CN1C(=O)NC(C)(c2ccccc2)C1=O (stereo not drawn)
→ -8.6%, -4.1%
> Cn1nccc1C(=O)N1CCCC(C(=O)c2cccc3ccccc23)C1 (stereo not drawn)
→ i, -23.1%
> O=C(NCC1CCCO1)c1cc(C(=O)c2ccc(Cl)cc2Cl)c[nH]1 (stereo not drawn)
→ -11.0%, -15.5%
> COc1ccc(NC(=O)/C=C/c2cc(Br)ccc2OC)cc1
→ nt, -16.2%
> Cc1cc(=O)n2[nH]cc(C(=O)O)c2n1
→ -7.3%, -9.1%
> CCOc1ccc(NC(=O)CN(C)C(=O)c2c(C)nn(-c3ccc(F)cc3)c2Cl)cc1OCC
→ -25.5%, -19.4%
> Cc1ccc(CNC(=O)CSc2nc3c(sc4ccccc43)c(=O)n2CCCC(=O)NCCO)cc1
→ -7.9%, -6.9%
